A1 inh – inhibitors of the anti-apoptotic protein A1, read as caspase activation; 0.066% of 330,000 active; MEF A1-2A-BIM cells, Caspase-Glo 3/7 luminescence, 3 h; percent of clofoctol response, vehicle zero; AID 2462; caspase activation, % (concentration not given with the values);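 active = over half of replicate activation scores above 10%, or exactly half above 10 with the replicate mean above 10; inconclusive = replicate mean below 10 yet half the replicates above 10; inactive = over half of replicates below 10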;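 note: wells of about 30 µL received 50 nL stock; many hits fall short of the cut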
ALR H2O2 inh – human ALR oxidase inhibition via reduced H2O2; purified ALR, DTT oxidation, H2O2 HRP-luminol luminescence; AID 485317; P55789; inhibition, % (concentration not given with the values); 3.8% of 290,000 active;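 active = mean and each replicate at 75% or more; inconclusive = only one of the two met; inactive = neither met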;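 note: stock transfer was 7.5 nL into about 7.5 µL; 0% = neutral wells and 100% = wells with inactivated enzyme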
T cruzi repl – blocks replication of Trypanosoma cruzi; T. cruzi beta-gal in NIH3T3, luminescence, 90 h; inhibition, % (no concentration beside the values); 1.4% of 300,000 active; AID 1885;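 active = mean inhibition across valid replicates above about 55%, limit read from the data; inconclusive = mean below that limit but half or more replicates reach it; inactive = mean below it, under half of replicates reach it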;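 note: signal also drops with host cell toxicity which is not excluded here; 0% = plate median of DMSO wells and 100% = zero luminescence signal; higher percent means less beta-gal luminescence so fewer parasites; stock transfer was 50 nL into about 50 µL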
Calb FLC – C. albicans growth modulation with fluconazole. 0.57% of 300,000 active. growth inhibition, % (test concentration not listed). C. albicans CaCi-2 (fluconazole-resistant clinical isolate) + fluconazole, Alamar Blue growth, 48 h;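 active = most replicates above 75%; inconclusive = exactly half above 75%; inactive = most below 75%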;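 note: all wells also contain fluconazole at 8 µg/ml as a sub-toxic cotreatment; 0% = median of DMSO wells and 100% = median of geldanamycin control wells; wells of about 8 µL received 7.5 nL stock; the first replicate is given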
rRNA inh HTS – inhibits bacterial ribosomal RNA function over humanized ribosomes; E. coli WT GFP vs humanized-ribosome RFP mutants, fluorescence, 24 h; active compounds read low; DMSO median 0, no signal -100; 1.6% of 350,000 active; AID 720706; GFP signal change (wild-type ribosome), % (concentration not given with the values);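 active = significant combined selectivity score with lowered wild-type GFP, culture density cut under 30%, mutant RFP and density less affected; inactive = any of these conditions unmet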; note: one replicate is shown; some compounds called inactive have numbers as strong as hits
Beta2AR agonist – human beta-2 adrenergic receptor agonism by FAP | Am2.2-beta2AR cells, FAP receptor internalization, flow cytometry; reference of the scale not given here | response, % (no concentration beside the values) | 0.43% of 340,000 active;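 active = response above a set limit, near 3 SD of response in nonfluorescent compounds, cut at about 42% in these data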;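 note: stock transfer was 100 nL into about 11 µL; a reference agonist was the positive control; negative values mostly stem from fluorescent compounds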
LANA-H2A inh – blocks KSHV LANA binding to histone H2A/H2B; cell-free LANA-H2A/H2B peptide, fluorescence polarization; inhibition, % (no concentration beside the values); 0.6% of 320,000 active; AID 2629; in the data active = inhibition mostly above about 10%, no sharp cut-off; inactive = mostly below about 6.7%;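 note: stock transfer was 7.5 nL into about 10 µL; 0% = median of vehicle wells and 100% = median of positive control wells; one replicate is shown; the record names a cut of 25% in any replicate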
Target sequence (Q9QR71 whole entry, looked up): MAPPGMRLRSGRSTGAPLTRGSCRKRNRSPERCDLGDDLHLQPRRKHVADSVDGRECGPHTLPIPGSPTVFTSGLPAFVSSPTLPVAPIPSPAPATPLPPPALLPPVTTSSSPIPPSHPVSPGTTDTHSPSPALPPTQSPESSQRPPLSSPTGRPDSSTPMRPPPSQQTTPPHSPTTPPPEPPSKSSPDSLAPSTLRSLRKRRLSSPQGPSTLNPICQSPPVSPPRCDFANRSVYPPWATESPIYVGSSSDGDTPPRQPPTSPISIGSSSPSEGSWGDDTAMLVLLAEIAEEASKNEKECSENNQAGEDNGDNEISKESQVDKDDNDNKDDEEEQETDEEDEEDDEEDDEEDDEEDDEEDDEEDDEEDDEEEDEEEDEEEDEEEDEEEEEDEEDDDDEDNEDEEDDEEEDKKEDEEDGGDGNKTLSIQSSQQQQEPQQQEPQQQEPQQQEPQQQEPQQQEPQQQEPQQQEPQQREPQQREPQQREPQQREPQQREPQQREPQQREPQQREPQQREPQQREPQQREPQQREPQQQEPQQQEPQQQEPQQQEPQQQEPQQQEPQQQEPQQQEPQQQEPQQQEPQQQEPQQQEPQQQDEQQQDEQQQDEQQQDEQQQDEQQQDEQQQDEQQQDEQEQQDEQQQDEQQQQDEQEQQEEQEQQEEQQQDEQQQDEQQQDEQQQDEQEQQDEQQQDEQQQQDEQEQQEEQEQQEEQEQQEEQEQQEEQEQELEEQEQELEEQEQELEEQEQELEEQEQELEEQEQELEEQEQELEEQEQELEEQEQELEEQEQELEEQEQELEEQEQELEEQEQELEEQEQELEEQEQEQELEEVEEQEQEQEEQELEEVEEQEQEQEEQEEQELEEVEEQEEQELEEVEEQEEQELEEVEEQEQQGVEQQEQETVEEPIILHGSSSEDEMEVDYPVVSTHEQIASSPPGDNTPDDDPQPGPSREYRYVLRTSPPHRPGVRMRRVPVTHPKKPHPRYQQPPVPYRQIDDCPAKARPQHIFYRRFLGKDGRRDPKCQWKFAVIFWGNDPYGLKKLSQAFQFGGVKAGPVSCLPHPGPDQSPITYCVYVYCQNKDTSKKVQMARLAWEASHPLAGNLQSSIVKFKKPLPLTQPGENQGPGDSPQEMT
Beta apoptosis – beta cell apoptosis inhibition. AID 435005. protection from apoptosis, % (test concentration not listed). 0.8% of 300,000 active. INS-1E cytokine-induced death, ATP luminescence, 48 h; percent of positive-control rescue, neutral wells zero;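 active = all replicates at 75% or more, or half of them and the mean; inconclusive = half reach 75% but not the mean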;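 note: 0% = cytokine-treated negative control wells and 100% = positive control rescue; higher means more ATP so stronger rescue from cytokine killing; wells of about 40 µL received 100 nL stock; the first replicate is given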
rRNA inh HTS OD600 – second read-out of rRNA inh HTS, no call of its own (marks repeat the call); OD600 change, %; measured here: OD600 growth;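 optical density of the mix in the first replicate; 0 = DMSO median and -100 = no signal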
rRNA inh HTS RFP – recorded beside rRNA inh HTS, whose call it bears; RFP signal change, %; measured here: RFP humanized mutant strains;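 first replicate; 0 = DMSO median and -100 = no signal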
* marks the source's active call; other numbers are inactive results; ? = inconclusive; nt = no result given. Some of the compounds tested; the hit share may differ from the screen's.

Preview, 2 compounds:
Letters – A = A1 inh; B = ALR H2O2 inh; C = T cruzi repl; D = Calb FLC; E = rRNA inh HTS; F = rRNA inh HTS OD600; G = rRNA inh HTS RFP; H = Beta2AR agonist; I = LANA-H2A inh; J = Beta apoptosis
> COc1cc(C(=O)/C=C/Nc2ccc(NC(C)=O)cc2)cc(OC)c1OC
  A: 0.2 | B: 1 | C: 1 | D: 5 | E: nt | F: nt | G: nt | H: 2 | I: -0.7 | J: 3

> Cn1c(CNC(=O)c2ccco2)nnc1SCC(=O)c1ccccc1
  A: -0.3 | B: nt | C: -4 | D: 10 | E: 2 | F: 0 | G: 0.9 | H: -6 | I: 0.2 | J: -8

The listing, previewed entries included:
Letters – A = A1 inh; B = ALR H2O2 inh; C = T cruzi repl; D = Calb FLC; E = rRNA inh HTS; F = rRNA inh HTS OD600; G = rRNA inh HTS RFP; H = Beta2AR agonist; I = LANA-H2A inh; J = Beta apoptosis
> COc1cc(C(=O)/C=C/Nc2ccc(NC(C)=O)cc2)cc(OC)c1OC
  A: 0.2 | B: 1 | C: 1 | D: 5 | E: nt | F: nt | G: nt | H: 2 | I: -0.7 | J: 3

> Cn1c(CNC(=O)c2ccco2)nnc1SCC(=O)c1ccccc1
  A: -0.3 | B: nt | C: -4 | D: 10 | E: 2 | F: 0 | G: 0.9 | H: -6 | I: 0.2 | J: -8

> CCOc1ccc(OCCC(=O)OCC(=O)Nc2ccc3c(c2)OCCO3)cc1
  A: 0.6 | B: 65 | C: -1 | D: 0 | E: -1 | F: 4 | G: -0.2 | H: -3 | I: 5.3 | J: -2

> CCCN1C(=O)/C(=C2/C=Cc3ccccc3N2CC)SC1=S
  A: 0.0 | B: 10 | C: 30 | D: -3 | E: 16 | F: 20 | G: 13 | H: -46 | I: -0.4 | J: 36

> O=C(Nc1cccc([N+](=O)[O-])c1)Nc1cnccn1
  A: 0.0 | B: -2 | C: 4 | D: -1 | E: 4 | F: 1 | G: -2.4 | H: -3 | I: -2.7 | J: -2

> S=C1NC(c2ccccc2)N2C(=S)NC(c3ccccc3)N12 (configuration not stated)
  A: -0.4 | B: 98* | C: 19 | D: 2 | E: nt | F: nt | G: nt | H: 0 | I: -1.9 | J: nt

> FC(F)Sc1ccc(NC(=S)NC2CCCCC2)cc1
  A: -1.0 | B: -51 | C: 3 | D: -40 | E: nt | F: nt | G: nt | H: 1 | I: -10 | J: 1

> O=C(COC(=O)COc1ccccc1)Nc1ncc([N+](=O)[O-])s1
  A: 0.3 | B: 96* | C: nt | D: nt | E: -9 | F: 8 | G: 3.8 | H: 13 | I: 2.4 | J: -5

> Cn1c(=O)c(=O)n(C)c2cc(N3CCCCC3)c(NS(=O)(=O)c3ccc([N+](=O)[O-])cc3)cc21
  A: 0.8 | B: 25 | C: 14 | D: 1 | E: 4 | F: -12 | G: 0.0 | H: 5 | I: 0.7 | J: -3

> Cc1ccc(CNS(=O)(=O)NCc2ccc(Cl)cc2)cc1
  A: -0.4 | B: -9 | C: -3 | D: ? | E: 11 | F: 5 | G: 0.2 | H: -4 | I: 15 | J: -13

> CCCC(=O)C1=C(O)C(C(=O)OC)C(C)(C)CC1=NC(C)C (configuration not stated)
  A: -0.1 | B: -5 | C: 2 | D: -2 | E: nt | F: nt | G: nt | H: 15 | I: -3.1 | J: -3

> C=CCN(CC=C)C(=O)c1ccc(OC2CCN(Cc3ccccn3)CC2)cc1
  A: 0.0 | B: -11 | C: -3 | D: 15 | E: 19 | F: 18 | G: -0.5 | H: -8 | I: 5.1 | J: -3

> Nc1nccnc1C(=O)OCC(=O)Nc1cccc(S(=O)(=O)N2CCCCC2)c1
  A: 0.1 | B: -3 | C: 1 | D: -14 | E: nt | F: nt | G: nt | H: -7 | I: 0.1 | J: -6

> CC(=O)N/N=C/c1cc(C(C)C)cc(/C=N/NC(C)=O)c1O
  A: -0.3 | B: 14 | C: -18 | D: -7 | E: -16 | F: -8 | G: -2.6 | H: -36 | I: 3.1 | J: -3

> O=C(O)c1cn(Cc2ccccc2)c2ccc(Cl)cc2c1=O
  A: 1.0 | B: 11 | C: 19 | D: -2 | E: 5 | F: 10 | G: -2.0 | H: 0 | I: -3.6 | J: 6

> COc1ccc(C(=O)NCc2nnc(SCC(=O)Nc3ccccc3OC)n2C)cc1
  A: 0.4 | B: -17 | C: -9 | D: -2 | E: 5 | F: 7 | G: 2.2 | H: -1 | I: -2.0 | J: 1

> CCOC(=O)CCc1c(C)nc2c(c(C)nn2-c2ccccc2)c1C
  A: -0.4 | B: 2 | C: -2 | D: -5 | E: 8 | F: -5 | G: -1.0 | H: 24 | I: -0.6 | J: -5

> Cc1ccc(-c2nnn(CCC(=O)N3CCCCC3C)n2)cc1 (configuration not stated)
  A: 0.2 | B: -3 | C: -11 | D: 2 | E: -1 | F: 2 | G: -0.6 | H: -1 | I: 9.1 | J: -4

> CCOC(=O)c1c(S(=O)(=O)Nc2ccc(C)cn2)c(C)n(C)c1C
  A: 0.5 | B: -2 | C: -1 | D: 6 | E: 10 | F: 2 | G: 1.0 | H: -7 | I: 4.4 | J: -4

> O=c1c2sc3nc(N4CCOCC4)c4c(c3c2ncn1-c1ccccc1)CCCC4
  A: -0.8 | B: -10 | C: 22 | D: 38 | E: -9 | F: -15 | G: -2.0 | H: -1 | I: 2.0 | J: nt

> Cc1ccc(C2C(C(=O)c3cccs3)=C(O)C(=O)N2CCN2CCOCC2)o1 (configuration not stated)
  A: 0.2 | B: nt | C: -12 | D: 35 | E: nt | F: nt | G: nt | H: -3 | I: -0.8 | J: -3

> Cc1ccc(C(=O)Nc2nnc(C)s2)o1
  A: 0.1 | B: 0 | C: -6 | D: -5 | E: nt | F: nt | G: nt | H: 4 | I: 2.5 | J: nt

> CCCCn1c(N)c(N(CC(C)C)C(=O)CSc2nnc(-c3ccc(Cl)cc3)o2)c(=O)[nH]c1=O
  A: -0.5 | B: -8 | C: 6 | D: nt | E: 7 | F: 7 | G: 0.8 | H: -3 | I: -0.1 | J: -2

> Nc1ccc(C(=O)OCC(=O)NC(=O)c2ccccc2)cc1[N+](=O)[O-]
  A: 0.0 | B: -41 | C: 2 | D: 21 | E: 6 | F: 9 | G: 0.4 | H: -2 | I: -3.4 | J: 0

> COc1cc(CNc2ccc(N3CCCC3)cc2)ccc1OCc1ccccc1F
  A: -7.5 | B: 20 | C: nt | D: nt | E: nt | F: nt | G: nt | H: -2 | I: 5.1 | J: 60

> CN(C(=O)COC(=O)Cn1c(C(F)(F)F)nc2ccccc21)c1c(N)n(Cc2ccccc2)c(=O)[nH]c1=O
  A: 0.1 | B: -5 | C: -12 | D: -9 | E: 8 | F: 8 | G: 2.2 | H: 2 | I: -4.0 | J: 1

> COc1cccc2sc(NC(=O)c3ccc(S(=O)(=O)N4CCOCC4)cc3)nc12
  A: 0.1 | B: -4 | C: 15 | D: 9 | E: -16 | F: -10 | G: -4.3 | H: 2 | I: -2.2 | J: 2

> COc1ccc(S(=O)(=O)N(CC(=O)O)Cc2ccccc2)cc1OC
  A: 0.0 | B: -5 | C: 0 | D: 0 | E: nt | F: nt | G: nt | H: 1 | I: 3.3 | J: -6

> Cc1cccc(C)c1NC(=O)c1sccc1SCc1cccc(C(F)(F)F)c1
  A: 0.3 | B: -4 | C: ? | D: 11 | E: -6 | F: -10 | G: -7.8 | H: 17 | I: -5.6 | J: 5

A different layout for part of the listing above:
Sequence of screens – A1 inh	ALR H2O2 inh	T cruzi repl	Calb FLC	rRNA inh HTS	rRNA inh HTS OD600	rRNA inh HTS RFP	Beta2AR agonist	LANA-H2A inh	Beta apoptosis
O=c1c2sc3nc(N4CCOCC4)c4c(c3c2ncn1-c1ccccc1)CCCC4
  -0.8	-10	22	38	-9	-15	-2.0	-1	2.0	nt
Cc1ccc(C2C(C(=O)c3cccs3)=C(O)C(=O)N2CCN2CCOCC2)o1 (configuration not stated)
  0.2	nt	-12	35	nt	nt	nt	-3	-0.8	-3
Cc1ccc(C(=O)Nc2nnc(C)s2)o1
  0.1	0	-6	-5	nt	nt	nt	4	2.5	nt
CCCCn1c(N)c(N(CC(C)C)C(=O)CSc2nnc(-c3ccc(Cl)cc3)o2)c(=O)[nH]c1=O
  -0.5	-8	6	nt	7	7	0.8	-3	-0.1	-2
Nc1ccc(C(=O)OCC(=O)NC(=O)c2ccccc2)cc1[N+](=O)[O-]
  0.0	-41	2	21	6	9	0.4	-2	-3.4	0
COc1cc(CNc2ccc(N3CCCC3)cc2)ccc1OCc1ccccc1F
  -7.5	20	nt	nt	nt	nt	nt	-2	5.1	60
CN(C(=O)COC(=O)Cn1c(C(F)(F)F)nc2ccccc21)c1c(N)n(Cc2ccccc2)c(=O)[nH]c1=O
  0.1	-5	-12	-9	8	8	2.2	2	-4.0	1
COc1cccc2sc(NC(=O)c3ccc(S(=O)(=O)N4CCOCC4)cc3)nc12
  0.1	-4	15	9	-16	-10	-4.3	2	-2.2	2
COc1ccc(S(=O)(=O)N(CC(=O)O)Cc2ccccc2)cc1OC
  0.0	-5	0	0	nt	nt	nt	1	3.3	-6
Cc1cccc(C)c1NC(=O)c1sccc1SCc1cccc(C(F)(F)F)c1
  0.3	-4	?	11	-6	-10	-7.8	17	-5.6	5

Source: PubChem (several laboratories)
